pPAFAH FP inh: pPAFAH (human) enzyme inhibition; inhibition, % at 3.39 µM; 330,000 compounds, 1.5% hits; AID 463082; recombinant pPAFAH, FP-rhodamine probe fluorescence polarization; Q13093;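 active = inhibition above the mean inhibition across the screen plus 3 SD, cut at about 25% in these data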;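 note: inhibitors block binding of the rhodamine activity-based probe so polarization drops; 0% = enzyme with DMSO and 100% = wells lacking pPAFAH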
Target sequence (Q13093 whole entry, looked up): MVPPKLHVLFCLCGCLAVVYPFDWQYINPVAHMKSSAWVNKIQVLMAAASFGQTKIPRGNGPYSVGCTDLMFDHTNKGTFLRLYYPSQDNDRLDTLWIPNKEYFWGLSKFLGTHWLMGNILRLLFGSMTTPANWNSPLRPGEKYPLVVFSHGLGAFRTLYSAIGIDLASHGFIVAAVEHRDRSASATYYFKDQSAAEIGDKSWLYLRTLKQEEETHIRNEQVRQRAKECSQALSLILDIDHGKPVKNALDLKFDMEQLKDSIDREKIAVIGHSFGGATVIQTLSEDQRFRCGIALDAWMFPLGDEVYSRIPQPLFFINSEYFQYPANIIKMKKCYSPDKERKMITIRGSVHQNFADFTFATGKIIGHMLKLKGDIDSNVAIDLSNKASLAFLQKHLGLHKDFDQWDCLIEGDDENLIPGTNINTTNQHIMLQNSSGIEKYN
LYPLA2 counter: counter-screen for PME1 inhibitors: inhibitors of human LYPLA2 | recombinant LYPLA2, FP-Rh probe fluorescence polarization | inhibition, % at 5.9 µM | O95372 | 320,000 compounds, 0.38% hits;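 active = inhibition above the screen-wide mean plus 3 SD, limit set per campaign, cut at about 26% in these data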;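 note: 0% = LYPLA2 with DMSO and 100% = wells lacking LYPLA2 enzyme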
GSTO1 inh: blocks human GSTO1 in RBBP9 counter-screen; inhibition, % at 5.96 µM; AID 1974; recombinant GSTO1, activity-based probe fluorescence polarization; 300,000 compounds, 1.1% hits; P78417;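 active = inhibition above the campaign mean inhibition plus 3 SD, cut at about 35% in these data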;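 note: 0% = GSTO1-1 with DMSO and 100% = wells lacking GSTO1-1 enzyme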
PAD4 inh: PAD4 (human) enzyme inhibition. Q9UM07. recombinant PAD4, RCA probe fluorescence polarization. inhibition, % at 6.36 µM. 330,000 compounds, 0.41% hits. AID 485272;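 active = percent inhibition above a cutoff equal to the mean of all tested compounds plus 3 SD, cut at about 15% in these data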;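 note: 0% = PAD4 with RCA probe and DMSO and 100% = probe without PAD4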
PAFAH1B2 FP inh: inhibitors of human PAFAH1B2; P68402; recombinant PAFAH1B2, FP-rhodamine activity probe, fluorescence polarization; inhibition, % at 3.39 µM; 340,000 compounds, 1.2% hits; AID 492953;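 active = inhibition above the mean of all tested compounds plus 3 SD, cut at about 24% in these data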;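 note: 0% = enzyme with DMSO and 100% = wells lacking PAFAH1B2; many of its hits are not listed in these tables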
Target sequence (P68402 whole entry, looked up): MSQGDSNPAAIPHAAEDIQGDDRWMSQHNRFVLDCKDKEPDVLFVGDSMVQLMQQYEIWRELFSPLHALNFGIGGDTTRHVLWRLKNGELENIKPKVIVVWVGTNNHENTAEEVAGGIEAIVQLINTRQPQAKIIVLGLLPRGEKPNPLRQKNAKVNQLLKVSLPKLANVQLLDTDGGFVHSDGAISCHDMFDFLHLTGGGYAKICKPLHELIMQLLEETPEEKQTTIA
LYPLA1 inh: blocks human lysophospholipase 1, a PME1 counter-screen | O75608 | recombinant LYPLA1, FP-Rh probe fluorescence polarization | inhibition, % at 5.9 µM | 320,000 compounds, 0.16% hits;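 active = inhibition above the mean of all tested compounds plus 3 SD, set per campaign, cut at about 14% in these data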;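 note: inhibitors block serine hydrolase probe labeling of LYPLA1 so polarization falls; 0% = enzyme with DMSO and 100% = wells lacking LYPLA1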
PAFAH2 inh: inhibitors of human PAFAH2; Q99487; recombinant PAFAH2, FP-rhodamine activity probe, fluorescence polarization; inhibition, % at 3.39 µM; 340,000 compounds, 0.99% hits; AID 492956;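 active = inhibition above the mean over all tested compounds plus 3 SD, cut at about 30% in these data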;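 note: inhibitors block probe labeling of enzyme so polarization drops; 0% = enzyme with DMSO and 100% = wells lacking PAFAH2 protein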
PAFAH1B3 FP inh: PAFAH1B3 (human) inhibition. Q15102. 340,000 compounds, 0.28% hits. recombinant PAFAH1B3, FP-rhodamine probe, fluorescence polarization. AID 492972. inhibition, % at 3.39 µM;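 active = inhibition above the screen-wide average of all tested compounds plus 3 SD, cut at about 25% in these data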;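 note: 0% = enzyme with DMSO only and 100% = wells lacking PAFAH1B3 protein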
Target sequence (Q15102 whole entry, looked up): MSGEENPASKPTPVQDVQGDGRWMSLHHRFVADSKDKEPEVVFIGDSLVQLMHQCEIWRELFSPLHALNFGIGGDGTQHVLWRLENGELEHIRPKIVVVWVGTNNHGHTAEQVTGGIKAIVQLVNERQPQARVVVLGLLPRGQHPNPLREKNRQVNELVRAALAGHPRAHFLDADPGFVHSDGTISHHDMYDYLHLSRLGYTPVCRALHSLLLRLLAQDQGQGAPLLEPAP
An asterisk follows results filed as active; / = not tested or not shown. Not all compounds are listed; count on the stated rates, not on these rows.

SMILES | pPAFAH FP inh | LYPLA2 counter | GSTO1 inh | PAD4 inh | PAFAH1B2 FP inh | LYPLA1 inh | PAFAH2 inh | PAFAH1B3 FP inh
O=S(=O)(Nc1cccc(CCc2ccccn2)c1)c1cc(Cl)ccc1Cl | 5.7 | 2.2 | 7.8 | -0.2 | 2.3 | -0.1 | 5.6 | 5.0
Cc1ccccc1-c1n[nH]c(=S)n1/N=C/c1c(C)nn(-c2ccccc2)c1C | 5.0 | -4.7 | -0.1 | -4.2 | 2.9 | 1.3 | 2.7 | -0.8
Cc1ccc(-c2nn3cnnc3c3ccccc23)cc1C | 5.6 | 8.1 | 1.4 | 2.1 | 3.2 | -0.2 | 11.2 | 2.9
O=c1cc2c(nn1Cc1c(Cl)cccc1Cl)-c1ccccc1CC2 | 11.7 | -8.0 | 3.3 | 1.9 | 4.9 | -4.7 | 9.0 | 1.2
COc1ccccc1C(=O)N1CCN(Cc2cn[nH]c2-c2ccc(F)cc2F)CC1 | 5.4 | -1.7 | 4.3 | 6.7 | 4.0 | -1.3 | 4.2 | 5.8
COc1ccc(CN(C)CC(=O)NC2CCCc3ccccc32)cc1OC (stereo unspecified) | 1.9 | 6.8 | -1.6 | 2.5 | 3.7 | 4.5 | 1.7 | 7.4
Nc1c2nc(-c3ccccc3Cl)[nH]c(=O)c2nc(=O)n1-c1ccccc1 | 4.3 | -1.4 | 3.0 | -1.4 | 4.6 | -1.6 | 3.3 | 10.0
O=C(O)c1nn(CCOc2cccc(Br)c2)c(=O)c2ccccc12 | 9.3 | 4.5 | 6.9 | 2.8 | 2.7 | 1.8 | 4.3 | -0.4
Cc1ccc(C)c(CN2C(=O)COc3ccc(C(=O)c4ccccc4C(=O)O)cc32)c1 | 2.1 | -5.2 | -5.7 | -0.2 | 1.4 | -4.0 | 6.2 | 12.9
COc1ccccc1NC(=O)COc1ccc2ccccc2c1 | -1.3 | -9.3 | -0.9 | -1.8 | -0.9 | -6.5 | 0.5 | 2.9
CC1=C(/C=C/C(C)=N\NC(=O)c2ccncc2)C(C)(C)CCC1 | 2.2 | -2.8 | 7.6 | -1.8 | 3.3 | -1.4 | 2.4 | 8.2
Cc1[nH]c(=O)[nH]c(=O)c1S(=O)(=O)NCCOC12CC3CC(CC(C3)C1)C2 | 1.4 | 5.8 | -1.2 | 1.9 | 21.2 | -2.3 | -0.3 | 2.6
N/C(=N\NC(=O)c1cccs1)c1cc2ccccc2oc1=O | -8.2 | -2.0 | -3.2 | 1.1 | 2.5 | -0.9 | -4.1 | -0.2
CCc1cc2c(COC(=O)c3cc(S(=O)(=O)N4CCOCC4)ccc3F)cc(=O)oc2cc1O | -7.5 | -16.4 | / | -1.4 | -4.9 | -11.1 | -6.4 | -6.5
N#CC1(c2ccc(NC(=O)c3ccccc3F)cc2)CCCC1 | 3.7 | 3.3 | -4.3 | 0.4 | 1.6 | -3.7 | -5.2 | -5.1
CC(C)(C)OC(=O)[C@H](Cc1ccccc1)NC(=O)c1nc[nH]c1C(=O)NC1CCNCC1 | 8.9 | 2.6 | 2.7 | -1.4 | -0.3 | 0.5 | 5.0 | 1.2
O=C(NCc1ccc(F)cc1)C1CCN(C(=O)NCc2ccccc2)CC1 | 3.4 | 1.1 | 2.7 | -0.8 | 4.6 | 1.6 | -0.5 | 12.7
COc1ccc(C2C3=C(Nc4ncnn42)c2ccccc2CC3)cc1OC (stereo unspecified) | -0.9 | -4.8 | 0.3 | -17.3 | / | -0.1 | / | /
COc1cccc(NC(=O)COC(=O)Cc2ccc(Br)cc2)c1 | 12.3 | -4.2 | -2.2 | -1.6 | 12.1 | 2.1 | 7.4 | 9.6
O=C(O)c1cccc(S(=O)(=O)N2CCCC(c3nc4c(nnn4Cc4ccccc4Cl)c(=O)[nH]3)C2)c1 (stereo unspecified) | 0.8 | 2.9 | 20.2 | 0.2 | 2.8 | 4.8 | 10.4 | 3.8
O=C(O)c1cccc(S(=O)(=O)N2CCN(Cc3ccc4c(c3)OCO4)CC2)c1 | -0.4 | -7.9 | -2.1 | -0.2 | -1.7 | -0.2 | 7.3 | 2.2
CNC(=O)CSc1nnc(-c2ccco2)n1-c1ccc(C)cc1 | 6.4 | -0.5 | 1.7 | -3.1 | 9.3 | 1.3 | -14.0 | 2.6
O=C(OCC(=O)N1CCc2ccccc21)c1c2c(nc3ccccc13)CCCCC2 | -5.8 | -2.2 | 4.2 | -1.3 | 0.8 | -6.4 | -7.7 | -5.5
CCOc1ccccc1-c1nc(-c2ccc(NC(=O)c3ccc(Br)o3)cc2)no1 | -9.8 | -61.1 | -14.9 | -44.0 | / | -36.7 | / | /
O=C(COC(=O)c1c2c(nc3ccccc13)CCCCC2)NCc1ccc2c(c1)OCO2 | 1.4 | -4.5 | 2.6 | -1.7 | -1.5 | -1.9 | -3.9 | -7.8
COc1ccc(C(=O)C2CCCN(C(=O)c3cccc(N(C)C)c3)C2)cc1OC (stereo unspecified) | 2.8 | 16.6 | -35.1 | -0.7 | 5.2 | 2.8 | 1.5 | 0.9
CCOC(=O)c1cc2nc(Nc3ccc(OC)cc3)sc2s1 | 6.7 | 1.8 | -6.6 | -9.9 | -4.4 | -0.7 | -3.6 | -3.4
O=[N+]([O-])c1ccccc1S(=O)(=O)Nc1cccc(-c2ccc(N3CCOCC3)nn2)c1 | 13.8 | 1.4 | -0.2 | -2.7 | 3.0 | 2.6 | 3.1 | 3.2
Cc1cc(C)n(-c2ccc3nncn3n2)n1 | -2.0 | -1.4 | 0.3 | 2.9 | 7.9 | -2.2 | -5.5 | 4.1
CN(C)c1ccc(S(=O)(=O)N(C)C)cc1NC(=O)Cc1cccc2ccccc12 | 8.2 | -2.2 | 4.1 | 4.9 | 3.0 | -7.8 | 3.7 | -10.3

Two compounds picked at random from those above:
SMILES | pPAFAH FP inh | LYPLA2 counter | GSTO1 inh | PAD4 inh | PAFAH1B2 FP inh | LYPLA1 inh | PAFAH2 inh | PAFAH1B3 FP inh
Cc1cc(C)n(-c2ccc3nncn3n2)n1 | -2.0 | -1.4 | 0.3 | 2.9 | 7.9 | -2.2 | -5.5 | 4.1
COc1ccc(C2C3=C(Nc4ncnn42)c2ccccc2CC3)cc1OC (stereo unspecified) | -0.9 | -4.8 | 0.3 | -17.3 | / | -0.1 | / | /

Following part.
SMILES | pPAFAH FP inh | LYPLA2 counter | GSTO1 inh | PAD4 inh | PAFAH1B2 FP inh | LYPLA1 inh | PAFAH2 inh | PAFAH1B3 FP inh
Cc1cc(C(=O)OCC(=O)Nc2cc(S(=O)(=O)N(C)C)ccc2C)c(C)o1 | 5.4 | 1.1 | 5.6 | 0.8 | / | 1.4 | / | /
CN(C)S(=O)(=O)c1ccc(N2CCCC2)c(C(=O)NNC(=O)COc2ccccc2Cl)c1 | -0.3 | 1.8 | 1.1 | 3.4 | 4.2 | 4.2 | 15.2 | -1.2
Cc1ccccc1NS(=O)(=O)c1ccc(C(=O)N2CCC2)cc1 | 23.3 | 7.8 | 8.6 | -3.7 | -1.7 | 2.4 | 0.1 | -5.0
Cc1ccc(S(=O)(=O)N2CCCCC2)cc1NC(=O)CSc1ncnc2ccccc12 | -0.2 | -0.9 | 5.4 | 4.0 | -1.0 | -3.2 | 0.4 | -2.7
O=C(CN1CCN(c2ccc(O)cc2)CC1)NC1CCCc2ccccc21 (stereo unspecified) | 13.2 | 1.6 | 6.6 | -3.4 | / | 3.3 | / | /
O=C(CN1CCC(n2nnc3cc(F)ccc32)CC1)Nc1ccccc1N1CCOCC1 | -6.1 | 3.0 | 4.2 | -5.6 | -0.2 | 0.6 | 1.4 | 12.1
COc1cc(Br)c(CC(=O)NC2CC2)cc1OC | 4.8 | -2.1 | 8.0 | -3.1 | -0.5 | 1.6 | 13.9 | 2.7
O=C(CN1CCN(c2cccc(Cl)c2)CC1)NC1CCCc2ccccc21 (stereo unspecified) | -1.2 | -1.1 | 0.4 | -7.3 | 3.5 | -0.8 | 11.6 | -1.1
Cc1cccc(-n2c(=O)[nH]c3c(C(N)=O)nc(CC(C)C)nc32)c1 | -4.7 | -2.7 | 11.3 | -0.5 | 3.3 | -4.3 | -5.4 | 3.5
CCN(CC)C(=O)CNc1ccc(C(F)(F)F)cc1[N+](=O)[O-] | 4.6 | -1.1 | -3.6 | -2.0 | 1.8 | -0.1 | 2.2 | 9.1
Cc1ccc([N+](=O)[O-])cc1-c1ccc2cccc(C)c2n1 | 3.8 | 5.0 | 5.3 | 0.5 | 0.2 | 1.5 | -2.5 | 4.0
CC(C)NC(=O)NC(=O)CSc1nnc(C(F)(F)F)n1C | -1.3 | -12.5 | 3.8 | -0.1 | -6.4 | -1.7 | -2.1 | 3.2
COc1ccc(S(=O)(=O)N2CCCCCC2)cc1NC(=O)Cc1ccccc1F | 7.2 | -6.3 | 10.9 | -0.1 | 5.8 | -5.5 | 9.2 | 1.7
COc1ccc(CNc2cc(NCCCO)c([N+](=O)[O-])c3nonc23)cc1 | 1.3 | -0.3 | 8.3 | -1.6 | -1.3 | -1.4 | 0.6 | 9.6
CCOc1ccccc1CNC(=O)CCCn1ncn2c(cc3occc32)c1=O | -1.2 | -2.0 | 2.5 | -9.6 | 1.2 | 1.5 | 3.0 | -2.1
O=C(NC1CCN(C(=O)NCc2ccccc2)CC1)c1ccc(F)cc1 | 3.7 | 7.4 | 8.3 | -0.9 | 1.6 | -2.2 | 4.1 | 3.8
Cc1c(NC(=O)N(C)c2ccccc2)c(=O)n(-c2ccccc2)n1C | 5.1 | 2.4 | 5.5 | -5.4 | 0.1 | 0.3 | -1.6 | -12.4
CCCNC(=O)COC(=O)c1c2c(nc3ccccc13)CCC2 | 11.9 | -1.6 | 46.9* | 4.5 | 6.5 | 0.2 | -7.0 | 6.1
COCCSc1ccccc1C(=O)N1CCN(Cc2ccc3c(c2)OCO3)CC1 | -1.0 | -3.4 | 6.1 | -5.6 | 0.5 | -3.3 | 10.0 | 2.1
Cc1cc(S(=O)(=O)N2CCCC(N(C)CCc3ccccn3)C2)c(C)s1 (stereo unspecified) | 2.9 | 6.8 | 6.4 | 0.6 | 5.7 | 1.4 | 6.2 | 10.9
COc1ccc(-c2nc(CSCC(=O)NC3CCCc4ccccc43)c(C)o2)cc1 (stereo unspecified) | -1.9 | -1.1 | -3.9 | -5.2 | 5.3 | -2.3 | -8.8 | 0.9
CC(=O)c1ccc(N2CCN(C(=O)C3CCN(S(=O)(=O)c4ccc(F)cc4)CC3)CC2)cc1 | 10.2 | 34.9* | / | 7.2 | -0.8 | 0.7 | 3.8 | 6.5
COc1cc2sc3ccc(C#Cc4ccc(N)cc4)cc3c(=O)c2cc1OC | -0.3 | -13.3 | -7.6 | -0.3 | -0.8 | -9.4 | -10.8 | 4.3
COc1ccc(OC)c(Nc2nc(C)nc3c2oc2ccccc23)c1 | 10.5 | 2.6 | -4.0 | 1.1 | 1.9 | 6.0 | 7.0 | 7.6
O=C1CN(C(=O)c2ccccc2F)C(c2ccccc2)c2cc(Cl)ccc2N1 (stereo unspecified) | -0.1 | 5.0 | 4.3 | 0.8 | 4.9 | 0.3 | -5.2 | -1.1
COc1ccc(C(CNc2ncnc3sccc23)N(C)C)cc1OC (stereo unspecified) | 6.2 | 0.6 | 2.6 | -5.3 | 6.7 | -2.3 | -1.0 | 1.8
COc1ccc(C)cc1NS(=O)(=O)c1cc(C)ccc1C | 4.3 | 5.0 | -6.7 | 0.5 | 2.4 | 1.8 | 0.5 | 1.8
O=C(CNc1ccccc1F)Nc1cc(S(=O)(=O)N2CCCCC2)ccc1Cl | 2.2 | 10.2 | / | 2.9 | 2.5 | 5.1 | -4.9 | 5.7
COc1ccc(CCNc2nc3ccc(C)cc3n3cnnc23)cc1OC | 0.5 | 2.9 | -4.6 | 1.7 | 4.3 | 2.0 | -0.7 | 2.0
O=C(NCc1ccc2c(c1)OCO2)c1ccc2c(c1)N(Cc1c(F)cccc1Cl)C(=O)CS2 | 1.4 | -13.7 | 6.1 | -1.9 | -3.7 | -10.9 | -7.9 | 3.2

From PubChem
